Screening data (PubChem)
Sa ugtP lethal – growth inhibition of ugtP-null S. aureus, primary screen, RN4220 ugtP deletion, OD600; 16 h; some inactives read as strong as hits; growth inhibition, % (test concentration not listed); hit rate 0.54% among 330,000; AID 1259309, 2017;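 active = z-score under -3 and OD600 up to 0.15 on both plates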;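 also: plate controls were untreated wells for no effect and antibiotic for full effect; wells of about 80 µL received 100 nL stock; the first replicate is given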
Bead autofluor – compound fluorescence in toxin protease inhibitor counterscreen; AID 624483; hit rate 3.1% among 360,000; compound autofluorescence counterscreen, microsphere flow cytometry; active compounds read high; fluorescence intensity (no concentration beside the values);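 active = at least 3 SD above the mean of all compounds, about 16000 in these data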;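 also: 100 nL of 1 mM stock went into each well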
PrP UTR inh – inhibition of PrP 5' UTR reporter expression; hit rate 0.35% among 340,000; cell-based PrP 5' UTR mRNA reporter, plate reader; inhibition, % (test concentration not listed); AID 488862, 2010;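 active = every replicate at 50% or more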;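 also: 0 = median of the neutral control wells; tested in H4 reporter cells; numbers are from one replicate; inactives centre near -14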
BJeLR lethal – MLPCN primary cell-based screen for lethality selective to Ras in HRASV12 cells. BJeLR (HRASV12) viability, CellTiter-Glo ATP luminescence, 48 h; reference of the scale not given here. hit rate 0.17% among 300,000. inhibition, % (test concentration not listed);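 active = replicate mean above 50%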;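 also: 50 nL library stock added to about 25 µL; numbers are from one replicate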
Sa RN4220 lethal – growth inhibition of S. aureus RN4220, primary screen, OD600; 16 h; inhibition, % (test concentration not listed); hit rate 0.33% among 330,000;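 active = z-score of -3 or lower and OD600 up to 0.18 on both plates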;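 also: plate controls were untreated cells for no effect and reference antibiotic for full effect; stock transfer was 100 nL into about 80 µL; one replicate is shown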
Mtb hypoxia inh – PubChem AID 1159583 | M. tuberculosis hypoxia-regulated fluorescent reporter, fluorescence | fluorescence inhibition, % (concentration not given with the values) | hit rate 0.1% among 300,000;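 active = 35 to 45% if threefold the growth effect, above 45% if 1.5-fold the growth effect; inactive = the rest, general growth blockers included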;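 also: wells of about 50 µL received 100 nL stock; 0% = vehicle wells and 100% = reference inhibitor wells; whole bacteria with a GFP reporter of the hypoxia response; strong numbers were not always called active; many hits fall short of the cut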
Mtb hypoxia inh growth – second read-out of Mtb hypoxia inh, no call of its own (marks repeat the call); growth inhibition, %; measured here: M. tuberculosis growth (absorbance);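 0% = vehicle and 100% = reference antibiotic; read after six days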
The depositor's hits bear a star; · = no result given. An unsorted share of the library; about 4% have a hit in one of these screens.

[1] Cc1ccc(C23CC4CC(CC(C(N)=O)(C4)C2)C3)cc1
[2] OC(c1ccccc1)(c1ccccc1)C1CCN(C(=S)NC2CCCC2)CC1
[3] COc1cccc(C(c2c(N)n(C)c(=O)n(C)c2=O)C(C)[N+](=O)[O-])c1 (configuration not stated)
[4] COc1ccc(-n2cc(-c3ccccc3)c3c(NN4CCOCC4)ncnc32)cc1
[5] CC(NC(=O)c1ccc(CS(C)(=O)=O)cc1)c1ccc(-n2ccnc2)cc1 (configuration not stated)
[6] COc1ccccc1/C=N/NC(=O)CC(=O)NC1CCCCC1
[7] CC(=O)c1cccc(N(CC(=O)Nc2ccccc2C(=O)N2CCCC2)S(C)(=O)=O)c1
[8] Cc1nn(Cc2c(F)c(F)c(F)c(F)c2F)c(C)c1NC(=O)c1nn(C)c(C)c1Br

entry no.	1	2	3	4	5	6	7	8
Sa ugtP lethal	4	10	3	6	-3	·	7	4
Bead autofluor	3962	2332	4299	4620	3968	4337	5302	6013
PrP UTR inh	-54	-6	-5	-10	-7	-1	-28	-19
BJeLR lethal	2	0	0	-9	4	-2	-2	-3
Sa RN4220 lethal	8.5	-5.5	2.3	9.3	-4.6	·	-0.2	1.5
Mtb hypoxia inh	15	2	0	8	-3	·	-2	9
Mtb hypoxia inh growth	2	-1	9	8	1	·	6	0

[9] CCOC(CNC(=O)Cc1c(C)nc2c(-c3ccccc3)c(C)nn2c1C)OCC
[10] CC1=C(C(=O)NCc2ccccc2)C(c2cccs2)n2ncnc2N1 (configuration not stated)
[11] Cc1cccc2c(=O)n3c(nc12)CCCCC3
[12] Cc1ccc2c(c1)C1C[N+](C)(CC(=O)c3ccc(Cl)cc3Cl)CCC1N2C(=O)c1ccc(F)cc1 (configuration not stated)
[13] Cc1nc(CCNS(=O)(=O)c2cccs2)cs1
[14] CCc1ccc(-c2csc(NC(=O)c3cccnc3)n2)cc1
[15] O=C(CSc1nnnn1-c1ccccc1)Nc1nc(-c2ccccc2)ns1
[16] CCc1ccc(NSc2ccccc2[N+](=O)[O-])cc1

entry no.	9	10	11	12	13	14	15	16
Sa ugtP lethal	5	5	-1	-15	7	-7	-8	9
Bead autofluor	2133	2133	3029	8678	2515	2401	2474	8622
PrP UTR inh	-9	-4	-10	-76	-15	-31	0	-6
BJeLR lethal	10	-8	-3	·	7	7	6	2
Sa RN4220 lethal	-1.6	1.6	5.0	-1.1	5.7	0.7	-0.2	21
Mtb hypoxia inh	-1	2	·	12	·	-3	·	2
Mtb hypoxia inh growth	-2	1	·	21	·	-6	·	8

[17] O=C1C2C(C(=O)N1N=Cc1cc([N+](=O)[O-])c(O)cc1O)C1C=CC2C12CC2 (configuration not stated)
[18] Cc1cccc(NC(=O)COC(=O)c2ccc([N+](=O)[O-])o2)c1C
[19] CCOC(=O)CCNC(=O)N1CCCC(N(C)CCc2ccc(OC)c(OC)c2)C1 (configuration not stated)
[20] CC1(C)Cc2c(sc(NC(=O)C(=O)NCCCN3CCOCC3)c2C(N)=O)CO1
[21] CCOC(=O)C1=C(C)N(C)C(C)=C(C(=O)OCC)C1c1ccc(C(=O)OC)cc1
[22] Cc1ccc(OCCN2C(=O)C(=O)c3cc(C)ccc32)cc1
[23] CC(=O)N1CCN(S(=O)(=O)c2cccc(C(=O)OCC(=O)Nc3c(Cl)cccc3C(F)(F)F)c2)CC1
[24] CCOC(=O)C1CCCCN1Cc1ccc(OC)c(OC)c1 (configuration not stated)

entry no.	17	18	19	20	21	22	23	24
Sa ugtP lethal	-2	0	9	3	14	15	-1	2
Bead autofluor	·	3920	3896	5562	2063	6278	3799	3722
PrP UTR inh	·	-13	-20	2	-4	-12	4	-36
BJeLR lethal	·	5	-6	0	11	32	·	-4
Sa RN4220 lethal	11	10	-0.6	3.0	2.3	-4.2	-3.3	0.7
Mtb hypoxia inh	4	7	-1	0	·	7	-3	8
Mtb hypoxia inh growth	-2	4	15	3	·	-2	9	-1

[25] O=C1c2ccccc2NC(c2ccco2)N1O (configuration not stated)
[26] O=S(=O)(Cc1ccccc1)N1CCCC(c2nc(-c3ccc(F)cc3)no2)C1 (configuration not stated)
[27] O=C(Nc1ccc(Br)cc1Cl)N1CCOCC1
[28] CC1=C(C)CC(C(=O)N2CCN(C/C=C/c3ccccc3)CC2)C(C(=O)O)C1 (configuration not stated)
[29] O=C(C1CCCN(Cc2ccccc2Br)C1)N1CCCCC1 (configuration not stated)
[30] O=C(Nc1cccc(NC(=O)c2cncc(Br)c2)c1)c1cncc(Br)c1
[31] O=C(C=NO)NCCCN1CCCCCC1
[32] CCn1c(CSCc2ccc(Cl)cc2)nnc1SCC(=O)Nc1cccc(C(=O)O)c1

entry no.	25	26	27	28	29	30	31	32
Sa ugtP lethal	-3	5	2	2	-7	11	4	4
Bead autofluor	2861	21682*	2461	2676	6600	3452	·	3568
PrP UTR inh	-25	-22	3	-24	-26	-16	·	-2
BJeLR lethal	3	-16	0	-13	-2	7	·	·
Sa RN4220 lethal	-7.0	0.7	2.7	4.9	-3.7	4.7	2.4	4.5
Mtb hypoxia inh	12	-2	-3	11	15	7	-2	6
Mtb hypoxia inh growth	9	6	0	5	20	1	0	5

Taken from above:
CC1=C(C)CC(C(=O)N2CCN(C/C=C/c3ccccc3)CC2)C(C(=O)O)C1 (configuration not stated) @ Bead autofluor = 2676
O=C(C=NO)NCCCN1CCCCCC1 @ Mtb hypoxia inh = -2

The list continues:
[33] COC(Cn1cc(C)c(=O)[nH]c1=O)OC
[34] Cc1ccc2c(c1)[nH]c1c(=O)n(CCN3CCNCC3)cnc12
[35] Cc1c(NC(=O)C(C)Oc2ccc(Br)cc2)c(=O)n(-c2ccccc2)n1C (configuration not stated)
[36] CNC(=O)C1CCC(=O)N1 (configuration not stated)
[37] O=[N+]([O-])c1ccc(C=NN=Cc2ccc([N+](=O)[O-])o2)o1
[38] COc1ccc(S(=O)(=O)N2C3CCC2CC(NC(=O)NC2CCCCC2)C3)cc1 (configuration not stated)
[39] CCc1ccc(NC(=O)CSCc2nc(N)nc(Nc3ccccc3CC)n2)cc1
[40] CCCN1Cc2cccc(C(=O)Nc3ccc(-c4nc5ccccc5[nH]4)cc3)c2C1=O

entry no.	33	34	35	36	37	38	39	40
Sa ugtP lethal	3	-3	6	-1	0	3	-4	1
Bead autofluor	4397	3316	2994	·	·	12568	8303	7016
PrP UTR inh	-24	-5	-8	·	·	-16	-7	-48
BJeLR lethal	-23	11	·	·	·	0	0	-2
Sa RN4220 lethal	2.6	-5.0	5.2	3.6	4.3	1.6	6.6	3.3
Mtb hypoxia inh	-7	4	14	8	26	6	7	7
Mtb hypoxia inh growth	1	6	13	7	10	0	9	4

Entries from the list above with fluorine (4):
[8] Cc1nn(Cc2c(F)c(F)c(F)c(F)c2F)c(C)c1NC(=O)c1nn(C)c(C)c1Br
[12] Cc1ccc2c(c1)C1C[N+](C)(CC(=O)c3ccc(Cl)cc3Cl)CCC1N2C(=O)c1ccc(F)cc1 (configuration not stated)
[23] CC(=O)N1CCN(S(=O)(=O)c2cccc(C(=O)OCC(=O)Nc3c(Cl)cccc3C(F)(F)F)c2)CC1
[26] O=S(=O)(Cc1ccccc1)N1CCCC(c2nc(-c3ccc(F)cc3)no2)C1 (configuration not stated)

entry no.	8	12	23	26
Sa ugtP lethal	4	-15	-1	5
Bead autofluor	6013	8678	3799	21682*
PrP UTR inh	-19	-76	4	-22
BJeLR lethal	-3	·	·	-16
Sa RN4220 lethal	1.5	-1.1	-3.3	0.7
Mtb hypoxia inh	9	12	-3	-2
Mtb hypoxia inh growth	0	21	9	6

(further entries)
[41] CCOc1ccc(-n2c(SCC(=O)N3CCc4ccccc43)nnc2-c2c[nH]c3ccccc23)cc1
[42] COc1ccccc1NC(=S)N1CCN(C/C=C/c2ccccc2)CC1
[43] CCN1C(=O)C2C(c3ccc(-c4ccccc4)cc3)N[C@@](Cc3ccccc3)(C(=O)OC)C2C1=O (some centres not stated)
[44] COc1ccccc1NC(=S)NC(=O)C1CC1
[45] Cc1ccc(C=NN(C)C2=NS(=O)(=O)c3ccccc32)cc1
[46] O=C(O)CC(c1cccc2ccccc12)n1cccc1 (configuration not stated)
[47] O=C(c1ccoc1)N1CCC2(CC1)Oc1ccc(F)cc1C(=O)C21CC(c2ccccc2)=NO1 (configuration not stated)
[48] CCOc1ccc(Br)cc1S(=O)(=O)Nc1ccc(C(=O)OCC(=O)Nc2ccc(C#N)cc2)cc1

entry no.	41	42	43	44	45	46	47	48
Sa ugtP lethal	-11	·	-26	-2	-3	-1	-20	-2
Bead autofluor	3567	2152	·	2428	·	3698	3117	3440
PrP UTR inh	-7	-5	·	-15	·	-12	-21	-3
BJeLR lethal	2	-8	·	-11	·	-5	1	6
Sa RN4220 lethal	-8.3	·	2.5	5.6	7.5	4.2	8.1	0.5
Mtb hypoxia inh	-8	·	5	2	3	10	-2	4
Mtb hypoxia inh growth	0	·	9	6	2	0	11	-1

[49] CC(C)CCNC(=O)c1ccc(OC2CCN(S(=O)(=O)N(C)C)CC2)cc1
[50] COc1ccccc1OCC(=O)Nc1sc2c(c1C(N)=O)CCC2
[51] CC(C)(C)C1CCC(OC(=O)C[N+]2(C)CCCCC2)CC1 (configuration not stated)
[52] COc1cc(NC(=O)c2cnn3c(C(F)F)cc(C4CC4)nc23)c(OC)cc1Cl
[53] CC(=O)Nc1ccc2nc(CN3CCN(CC(C)C)C(CCO)C3)ccc2c1 (configuration not stated)
[54] NC(=O)C(CCC(=O)c1ccc(Br)cc1)S(=O)(=O)c1ccccc1 (configuration not stated)
[55] CCC(NS(=O)(=O)c1ccc(OC)cc1)C(=O)NCCc1ccccc1 (configuration not stated)
[56] O=C(Cc1cccc2ccccc12)NN=Cc1ccc(O)c([N+](=O)[O-])c1

entry no.	49	50	51	52	53	54	55	56
Sa ugtP lethal	2	-3	6	9	8	9	9	-3
Bead autofluor	4590	·	4525	4121	4557	4086	3840	·
PrP UTR inh	-23	-60	-18	-17	-1	-16	4	·
BJeLR lethal	6	·	5	0	35	0	7	·
Sa RN4220 lethal	2.8	5.2	5.7	11	-0.1	0.7	2.6	1.8
Mtb hypoxia inh	5	-1	13	-1	6	15	-3	3
Mtb hypoxia inh growth	12	3	13	-6	5	12	3	-1

[57] O=C(c1ccc2c(c1)OCO2)N1CCN(S(=O)(=O)N2CCCCC2)CC1
[58] Cc1cccc(NS(=O)(=O)c2cc(C(=O)OCC(=O)Nc3cc(C)on3)ccc2C)c1
[59] CCc1nc(Nc2ccccc2OC)c2oc3ccccc3c2n1
[60] COc1ccc(C)cc1N(CC(=O)Nc1cccnc1)S(=O)(=O)c1ccc(C)cc1
[61] Nc1c2c(nc3sc4c(c13)CCCC4)CCCCCC2
[62] Cc1nn(-c2cccc(C(F)(F)F)c2)c(=O)c2ccccc12
[63] O=S(=O)(Nc1cccc2ccccc12)c1cccs1
[64] C=CCn1c(SCc2cc([N+](=O)[O-])cc3c2OCOC3)nc2cc(C(=O)O)ccc2c1=O

entry no.	57	58	59	60	61	62	63	64
Sa ugtP lethal	11	0	13	-2	-7	8	-5	16
Bead autofluor	3744	4294	4116	3320	2510	3247	5222	3874
PrP UTR inh	-15	-14	-32	-16	-56	-20	-16	-8
BJeLR lethal	6	1	-5	2	-4	-4	15	-8
Sa RN4220 lethal	4.1	0.4	22	1.1	3.3	3.0	4.2	17
Mtb hypoxia inh	9	-7	4	-8	-13	15	16	-1
Mtb hypoxia inh growth	11	2	4	-5	1	9	-1	3
